VDR inh: inhibitors of human vitamin D receptor; hit rate 0.93% among 400,000; Potency, µM, inactives show max response, negative = inhibition, hits mostly inhibitors; VDR-SRC2-3 peptide fluorescence polarization, 2 h; P11473; AID 504847; active means well fitted inhibition curve with a large enough effect; further: series mostly up to about 120 µM
Target sequence (P11473 whole entry, looked up): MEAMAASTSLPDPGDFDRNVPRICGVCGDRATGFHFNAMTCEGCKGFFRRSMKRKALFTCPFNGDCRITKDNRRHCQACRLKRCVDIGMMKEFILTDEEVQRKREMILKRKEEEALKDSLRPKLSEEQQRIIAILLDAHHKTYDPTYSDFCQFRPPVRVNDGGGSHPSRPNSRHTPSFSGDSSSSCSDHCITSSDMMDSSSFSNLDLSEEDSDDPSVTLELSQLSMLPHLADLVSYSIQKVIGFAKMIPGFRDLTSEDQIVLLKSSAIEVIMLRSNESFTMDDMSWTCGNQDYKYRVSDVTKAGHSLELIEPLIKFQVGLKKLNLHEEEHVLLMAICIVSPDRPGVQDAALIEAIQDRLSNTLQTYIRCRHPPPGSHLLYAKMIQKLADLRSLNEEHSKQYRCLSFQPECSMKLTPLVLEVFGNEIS
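After 23 nl compound addition and a short centrifugation, plates sat for 2 hours at ambient temperature; polarization of fluorescence then indicated loss of VDR binding to peptide SRC2-3.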
* marks the source's active call; other numbers are inactive results. On the % scale 0 is the no-effect control and ±100 the full control effect; potency means the concentration at half of the fitted maximal effect.

VDR inh | structure
16.8% | O=C(C1CCN(S(=O)(=O)c2ccc(F)cc2)CC1)N1CCOCC1
5.2% | O=C(CNC(=O)c1ccc(-c2ccccc2)cc1)OCc1c(Cl)cccc1Cl
-6.8% | COc1cc(NCCCCCCCN)c2ncccc2c1
0.7% | COc1ccc(NC2=C(C(C)=O)C(c3ccc4c(c3)OCO4)C(C(C)=O)C(C)(O)C2)cc1 (centres undefined)
-23.1% | CC(C)(C)OC(=O)NCC(=O)Oc1cc2oc(=O)cc(-c3ccccc3)c2cc1Cl
-6.7% | CCN(CC)CC(O)COc1ccc2c(c1)c(C(C)=O)c(C)n2-c1ccccc1 (centres undefined)
-8.0% | O=C(CNC(=O)c1ccco1)NCC(=O)OCc1c(F)cccc1Cl
-14.9% | Cc1cc(C)cc(CC2CC(=O)N(c3nc(C)cc(C)n3)C2=O)c1 (centres undefined)
-2.7% | CC(C)COCC1CC2(CC(C)C(=O)CC2=O)C(=O)O1 (centres undefined)
-0.9% | Cc1ccc(N)c2c1OCCC2=O
5.2% | COc1cccc(CNC(=O)c2c(C)nn(-c3ccccc3)c2C)c1
-2.5% | Cc1cc2c(n1-c1ccc(C(=O)NCc3cccc(Br)c3)cc1)CCC(C)C2 (centres undefined)
-6.7% | COC(=O)c1ccc(CNC(=O)COC(=O)/C=C/c2cc(OC)c(OC)c(OC)c2)cc1
0.1% | C/C(NCCCn1ccnc1)=C(\C#N)C(N)=O
9.5% | Cn1c(SCC(=O)N2CCN(c3ccccc3)CC2)nnc1-c1ccco1

Reprinted from the part before: 3 compounds; new compounds follow.
VDR inh | structure
-6.7% | COC(=O)c1ccc(CNC(=O)COC(=O)/C=C/c2cc(OC)c(OC)c(OC)c2)cc1
0.1% | C/C(NCCCn1ccnc1)=C(\C#N)C(N)=O
9.5% | Cn1c(SCC(=O)N2CCN(c3ccccc3)CC2)nnc1-c1ccco1
-16.0% | CN(CCCNS(=O)(=O)c1cccc2cccnc12)Cc1ccccc1
-6.1% | COc1ccc(/C=C/CN2CCC(n3nccc3NC(=O)C3CC3)CC2)cc1
9.6% | O=C(NCCCN1CCN(c2ccccc2F)CC1)c1ccc2nc(Cc3ccccc3)oc2c1
-4.6% | O=C(O)CN(c1ccc2c(c1)OCCO2)S(=O)(=O)c1ccccc1
11.8% | O=C(NCCN1CCOCC1)c1cc(Sc2ccc(F)cc2F)nc2ccccc12
2.4% | COc1cccc(/C=C/C(=O)Nc2ccc3[nH]c(=O)[nH]c3c2)c1
-14.4% | CCOc1ccc(N(C(C)C(=O)NCc2ccco2)S(C)(=O)=O)cc1 (centres undefined)
-19.3% | Cc1ccc(/C=C(\C#N)C(=O)Nc2ccccn2)o1
16.1% | CC(C)Cc1nc2n[nH]c(N)c2c2c1CCC2
1.9% | C/C(=N\NC(=O)c1ccc(NS(=O)(=O)c2cccs2)cc1)c1ccc(O)cc1O
0.2% | CC(NC(=O)c1c(F)cccc1Cl)c1ccc(-n2ccnc2)cc1 (centres undefined)
0.7% | CC(=O)c1c(C)[nH]c(C(=O)NC2=NCCS2)c1C
-11.7% | Cc1cccc(C(=O)Nc2nnc(S(=O)(=O)N3CCCc4ccccc43)s2)c1
-3.1% | OCC1(CCOc2ccccc2)CCN(Cc2cccn2-c2ncccn2)CC1
-1.9% | Cc1ccnc(NC(=O)c2ccc(Cl)c([N+](=O)[O-])c2)c1
-18.8% | CCN(CC)C1CCN(C(=O)CCc2nnc(CCCCc3ccccc3)o2)C1 (centres undefined)
-3.6% | CCC(NS(=O)(=O)c1ccc(C)cc1)C(=O)N1CCN(c2ccccn2)CC1 (centres undefined)
-12.0% | CCN(CC(=O)Nc1ccc2c(c1)OCCO2)Cc1cc(=O)n2ccsc2n1
-5.0% | CC(=O)N1CCc2cc(S(=O)(=O)NCCC(=O)NCCc3ccccc3)ccc21
6.1% | O=C(Nc1ccc(Cl)c(C(F)(F)F)c1)[C@@H]1CC=C[C@@H]2CCN(Cc3ccccc3)C(=O)[C@@H]21
3.7% | Cc1ccccc1C(=O)NC1CCN(CC(=O)NCc2ccc(F)cc2)CC1
28.2µM* | c1ccc(CNc2ncnc3ccc(-c4cccnc4)cc23)cc1
-10.0% | O=C(c1ccc2nccnc2c1)N1CCCC(N2CCN(c3ccc(F)cc3)CC2)C1 (centres undefined)
1.6% | CCCOC(=O)c1ccc(NC(=O)c2cc(=O)[nH]c3ccccc23)cc1
14.2% | Cc1[nH]c2ccccc2c1C(c1ccccn1)c1c(C)[nH]c2ccccc12
-16.6% | Cc1cc(O)c(/C=N/Nc2ccc(Cl)cc2)c(=O)o1
13.3% | CCc1nc(SCc2cc(=O)c3cc(F)ccc3[nH]2)n[nH]1
-6.8% | CCc1ccc2c(c1)N(C[C@H](C)CN(C)C)c1ccccc1S2
-0.6% | CNC(=O)c1ccsc1NC(=O)c1ccc(Cl)s1
-4.0% | COc1ccc(NC(=O)CSc2nnnn2C)cc1

Reprinted from the listing for reference:
VDR inh | structure
-18.8% | CCN(CC)C1CCN(C(=O)CCc2nnc(CCCCc3ccccc3)o2)C1 (centres undefined)
-3.6% | CCC(NS(=O)(=O)c1ccc(C)cc1)C(=O)N1CCN(c2ccccn2)CC1 (centres undefined)
-12.0% | CCN(CC(=O)Nc1ccc2c(c1)OCCO2)Cc1cc(=O)n2ccsc2n1
-5.0% | CC(=O)N1CCc2cc(S(=O)(=O)NCCC(=O)NCCc3ccccc3)ccc21

(continued)
VDR inh | structure
-19.5% | CC(C)[C@H](NC(=O)[C@H](Cc1ccccc1)n1c(=O)[nH]c2ccccc2c1=O)C(=O)N[C@@H](Cc1ccccc1)C(=O)O
-12.4% | CSC1=C(C#N)C(c2ccc(C)cc2)C2=C(CCCC2=O)N1 (centres undefined)
8.1% | Cc1ccc(/C=N/NC(=O)CSc2nc3ccccc3c(=O)n2-c2ccccc2C)s1
7.1% | COC(=O)c1ccccc1NC(=O)CN1C(=O)c2ccccc2C1=O
21.4% | COCCNC(=O)C12CC3CC(C1)CC(c1ccccc1)(C3)C2
18.0% | Cc1nnc(-c2cnn(C)c2N)n1Cc1ccc2c(c1)OCO2
18.6% | CC1CCCC(C)N1CCCNC(=O)C1CCCN(c2ncnc3c2nc2n3CCCCC2)C1 (centres undefined)
-9.3% | C[C@H](NC(=O)c1ccccc1Cl)C(=O)OCc1cn2cc(Cl)ccc2n1
19.6% | COc1ccc(S(=O)(=O)N2CCN(C(=O)NCc3ccc(OC)c(OC)c3)CC2)cc1
4.0% | O=C(CCn1c(=S)oc2ccccc21)Nc1cc([N+](=O)[O-])ccc1F
14.9% | O=C(OCc1cc2ccccc2[nH]c1=O)c1ccncc1
-5.1% | Cc1cccc(N2CCN(C(=O)c3cc(S(=O)(=O)N4CCOCC4)cn3C)CC2)c1C
0.8% | c1ccc2c(CCNc3ncnc4nc[nH]c34)c[nH]c2c1
-7.3% | O=C(O)Cc1cn(Cc2cccc(Cl)c2)c2ccccc12
-2.3% | COCCN1C2=C(C(=O)CC(C)(C)C2)C(c2ccc(OC)c(OC)c2)C2=C1CC(C)(C)CC2=O
-19.2% | CCCOC(=O)/C(=C\c1ccc([N+](=O)[O-])o1)NC(=O)c1ccccc1
-15.5% | O=C1NCCCC1C(=O)N/N=C/c1ccc(Cl)cc1 (centres undefined)
1.7% | COc1ccccc1-n1cnnc1SC1CCOC1=O (centres undefined)
-19.8% | Cc1ccc(CSc2ncnc3c2cnn3Cc2ccccc2)cc1C
-13.5% | O=C(Nc1ccc2oc(=O)ccc2c1)c1ccc(-c2ccc(Cl)cc2)o1
-15.3% | CCOc1ccc(NC(=S)NN2C(C)CCCC2C)cc1 (centres undefined)
-12.2% | CCCCN(C)C1=CC2=CC(=C(C#N)C#N)CCC2CC1 (centres undefined)
-11.3% | Cc1ccc(NC(=O)c2ccc(F)cc2F)cc1
-10.2% | CC[C@]1(C(=O)OC)[C@H]2C(=O)N(C)C(=O)[C@H]2[C@H]2CN=C(SCc3ccc(C#N)cc3)N21
-7.2% | COc1ccc(/C=C2\SC(=O)N(CCNC(=O)C3=COCCO3)C2=O)cc1
16.9% | COc1cccc(S(=O)(=O)N2CCN(c3nc(-c4cccs4)nc4ccccc34)CC2)c1
-25.3% | O=C(Nc1cccc(S(=O)(=O)N2CCCCC2)c1)c1ccc2c(c1)OCO2
-1.6% | CC/C(=N\NC(=S)Nc1ccc(OC)cc1)c1ccc(OC(F)F)cc1
-18.6% | S=c1[nH]nc([C@@H]2C[C@H]2c2ccccc2)n1-c1ccccc1
-6.8% | O=c1cc(NCc2ccco2)[nH]c(=O)n1-c1ccc(Br)cc1

3 structures from above, ordered by length of the SMILES, highest first.
VDR inh | structure
-10.2% | CC[C@]1(C(=O)OC)[C@H]2C(=O)N(C)C(=O)[C@H]2[C@H]2CN=C(SCc3ccc(C#N)cc3)N21
-13.5% | O=C(Nc1ccc2oc(=O)ccc2c1)c1ccc(-c2ccc(Cl)cc2)o1
-15.5% | O=C1NCCCC1C(=O)N/N=C/c1ccc(Cl)cc1 (centres undefined)

Continued.
VDR inh | structure
-3.6% | CN(C)C1CCN(C(=O)c2cccc(OC3CCN(S(=O)(=O)N(C)C)CC3)c2)C1 (centres undefined)
0.4% | CCOc1ccc(N2CC(NC(=O)C3CC3)CC2=O)cc1 (centres undefined)
-16.8% | CC(/C=C/c1ccc2c(c1)OCO2)=N\NC(=O)c1ccccc1
-13.0% | CS(=O)(=O)N(CC(=O)Nc1ccccc1C(=O)N1CCOCC1)c1ccccc1
-1.4% | CC1CN(S(=O)(=O)c2cc(C(=O)NC(C)c3cccnc3)ccc2Cl)CC(C)O1 (centres undefined)
0.6% | CCCc1nnc(NC(=O)c2ccc(S(=O)(=O)N(C)c3ccccc3OC)cc2)s1
10.8% | COc1ccc(NS(=O)(=O)c2cccc(-c3nnc(-c4ccccc4)o3)c2)cc1
6.8% | CCC1(C)OC(=O)N2CCc3c(C)[nH]c4c(C)ccc(c34)C21C (centres undefined)
9.4% | CCCC1=[N+](CC(C)=O)CCn2c(C)ccc21
-8.4% | CCOC(=O)N1CCC(N2CC34C=CC(O3)C(C(=O)Nc3ccc(C(C)C)cc3)C4C2=O)CC1 (centres undefined)
-35.1% | Nc1nc(SCC(=O)N2CCc3ccccc3C2)[nH]c(=O)c1-c1ccccc1
-1.6% | Cc1ccc(OCC(=O)NCCCNC(=O)c2ccc(C)nc2)cc1
-3.2% | CC1CCN(CCNC(=O)c2ccc(Cn3c(SCc4ccccc4)nc4cccnc43)cc2)CC1
5.2% | COc1ccc(Cl)cc1NC(=O)c1ccc2nc(Cc3ccccc3)oc2c1
-1.3% | CCOC(=O)N1CCN(C(=O)CCCn2c(=S)[nH]c3ccccc3c2=O)CC1

Printed as active in VDR inh, among the entries above:
VDR inh | structure
28.2µM* | c1ccc(CNc2ncnc3ccc(-c4cccnc4)cc23)cc1

Later entries:
VDR inh | structure
-5.0% | COCCn1c(C)nnc1SCC(=O)NNC(=O)c1ccc(Cl)cc1
-12.5% | CCOC(=O)CSc1nc(-c2cccs2)nc2c1c(=O)n(C)c(=O)n2C
13.9% | Cc1cc(S(=O)(=O)NCc2ccco2)c(C)s1
-9.7% | O=[N+]([O-])c1ccc(O)c(C2CCCCC2)c1
10.8% | COc1ccccc1N(CC(O)Cn1nc(C)cc1C)S(=O)(=O)c1ccccc1 (centres undefined)
12.4% | O=C(Cn1cc([N+](=O)[O-])cn1)Nc1ccc(Cn2cc(Br)cn2)cc1
-19.7% | COC(=O)/C=c1/s/c(=C(/C#N)C(=O)N2CCOCC2)n(-c2ccccc2)c1=O
-0.3% | CC1CCc2c(C(=O)OCC(=O)Nc3cccc(S(=O)(=O)N4CCCCCC4)c3)csc2C1 (centres undefined)
-14.5% | COc1cc(NC(=O)CSc2cc(=O)n(C)c3ccccc23)cc(OC)c1OC
13.8% | COc1ccc(C2C(C#N)=C(N)N(c3sc4c(c3C#N)CCCC4)C3=C2C(=O)CC(C)(C)C3)cc1OC (centres undefined)
-5.4% | Cc1ccc(S(=O)(=O)N2CCN(C(=O)COC(=O)CCCOc3ccccc3)CC2)c(C)c1
7.9% | COc1ccc(C(=O)N2CC(=O)Nc3ccc(C)cc3C2c2ccccc2)c(OC)c1 (centres undefined)
-5.6% | Cc1ccc(-n2c(SCC(=O)Nc3cccc(Cl)c3)nc3n[nH]c(C)c3c2=N)cc1
-8.2% | C/C(N)=C(/C#N)C(=O)COC(=O)c1cc2c(s1)CCC(C)C2 (centres undefined)
1.9% | COc1ccc(C(=O)COC(=O)c2cnc(C)cn2)cc1OC
-3.5% | O=C(COC(=O)CNC(=O)c1ccccc1)Nc1cccc(Br)c1
-6.0% | COc1ccccc1NC(=O)c1c(Nc2ccccc2C)sc(C(=O)Nc2cccc(Cl)c2)c1N
3.0% | CCC1(CC)NC(=O)N(CC(=O)OCC(=O)Nc2ccc(F)c(F)c2F)C1=O
-0.6% | O=C(Oc1cccnc1)c1ccc(Cl)cc1
15.1% | CC1CCCCC1NC(=O)c1cc(S(=O)(=O)N2CCCCC2)ccc1N1CCOCC1 (centres undefined)
0.7% | COc1cccc(-c2nnn(CC(C)=O)n2)c1
-2.0% | O=C(CN(Cc1ccc2c(c1)OCO2)C(=O)CNS(=O)(=O)c1ccccc1)NCC1CCCO1 (centres undefined)
-7.7% | C/C(=N/NC(=O)COc1ccc(C(C)(C)C)cc1)c1ccc(N2CCOCC2)cc1
12.2% | O=C(Nc1cc(S(=O)(=O)Nc2ccccc2Cl)ccc1O)c1ccc(F)cc1F
-0.6% | Cc1n[nH]c(C)c1CCN(C)C(=O)C1CCC(=O)N(CC2CCCCC2)C1 (centres undefined)
3.3% | CNc1c(NS(=O)(=O)c2ccc(C(C)(C)C)cc2)c(=O)oc2ccccc12
11.6% | CCOc1cc(S(=O)(=O)NCCc2ccccc2C)c(OCC)cc1-n1cnnn1
5.5% | C/C(CC(=O)Nc1ccccn1)=N\NC(=O)Cc1cccc2ccccc12
6.5% | COC(=O)C(C)N(C#N)c1nc(NC(C)C)nc(SC)n1 (centres undefined)
-2.3% | Cc1ccc2c(Cl)c(C(=O)Nc3cccnc3)sc2c1

From PubChem BioAssay

Not all compounds are listed; the hit share may differ from the screen's.
